Cruzain noTriton – blocks cruzain activity in detergent-free assay | P25779 | purified cruzain, Z-FR-AMC fluorescence, no detergent | Potency, µM, inactives show max response, negative = inhibition, usual class: inhibitors | 2.3% of 200,000 active | AID 1476;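 also: plate controls were enzyme without inhibitor for no effect and buffer without enzyme for full effect; nearly all actives have a fitted effect of over 40% in size; top concentration of the series not given in the record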
Target sequence (P25779 123-467 limits assumed): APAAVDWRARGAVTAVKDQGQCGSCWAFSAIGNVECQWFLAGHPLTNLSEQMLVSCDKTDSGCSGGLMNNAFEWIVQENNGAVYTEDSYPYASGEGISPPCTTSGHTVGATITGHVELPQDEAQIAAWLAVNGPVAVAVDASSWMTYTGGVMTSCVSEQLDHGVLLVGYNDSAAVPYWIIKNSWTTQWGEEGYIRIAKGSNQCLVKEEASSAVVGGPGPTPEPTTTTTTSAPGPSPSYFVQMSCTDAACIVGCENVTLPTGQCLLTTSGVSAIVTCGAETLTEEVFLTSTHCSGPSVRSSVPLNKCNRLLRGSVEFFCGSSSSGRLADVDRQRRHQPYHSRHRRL
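Purified cruzain at 1.5 nM, pre-incubated 15 min with compound at room temperature in 100 mM sodium acetate pH 5.5, 5 mM DTT, 0.00005% Triton X-100. Reaction started with 2 uM Z-FR-AMC; AMC fluorescence increase over 60 s gives rate.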
StopGo reporter – lowers the luciferase signal of an FMDV 2A StopGo reporter; 1.2% of 410,000 active; human cells with a luciferase reporter of 2A StopGo recoding; control for the full effect not named in the record; Potency, µM (highest dose often 57.9 µM), for inactives: at the highest dose signal change, negative = less light; active = well fitted falling curve with a large enough effect; inconclusive = small, poorly fitted or top-dose-only effect; inactive = no such curve, though single readings can be large or run the other way; tested in HEK293T cells; also: % is scaled to controls: 0 for no effect and ±100 for the full control effect; nearly all actives have a fitted effect of over 45% in size; luciferase light after 4 h
NS1 inh – inhibitors of influenza NS1 protein function. 0.4% of 270,000 active. S. cerevisiae slowed by influenza A NS1, growth recovery by OD600. Potency, µM (doses to about 46.1 µM), for the others: at the highest dose activity, positive = more growth; active means well fitted rising curve with a large enough effect; inconclusive means small, poorly fitted or top-dose-only effect; inactive means no such curve, though single readings can be large or run the other way; also: nearly all actives have a fitted effect of over 50% in size
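Recovery from NS1-induced slow growth read by OD600 in budding yeast switched to galactose assay medium (pH 6.0, -URA) at 1:100 dilution. Compound 23 nl per well; the matching strain lacking NS1 serves as control.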
Marburg entry inh – inhibitors of Marburg virus binding or cell entry; Potency, µM (titrated, usually from 37.8 µM), for the others: at the top dose activity change, negative = inhibition, usual class: inhibitors; 1.8% of 300,000 active; Marburg virus pseudotyped entry inhibition, cell reporter; control for the full effect not named in the record; about a third of the inactives were read at about 46 µM; AID 540276; active = well fitted inhibition curve with a large enough effect; inconclusive = small, poorly fitted or top-dose-only effect, or effect the other way; inactive = flat fitted curve, though single readings scatter; tested in HEK293 cells; about a fifth of its hits are not listed in these tables; also: % is scaled to controls: 0 for no effect and ±100 for the full control effect; luciferase read-out
Cruzain inh Det – cruzain (T. cruzi) inhibition with detergent | P25779 | purified cruzain, Z-FR-AMC fluorescence, 0.01% Triton | Potency, µM, for the others: max response, negative = inhibition, most hits filed as inhibitors | 0.43% of 200,000 active;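 also: plate controls were neutral wells for no effect and buffer without enzyme for full effect; nearly all actives have a fitted effect of over 40% in size; top concentration of the series not given in the record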
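Cysteine protease activity tested under reducing, mildly acidic conditions (100 mM sodium acetate pH 5.5, 5 mM DTT) plus 0.01% Triton X-100. Cruzain 1.5 nM; substrate Z-FR-AMC 2 uM; 15 min compound preincubation at room temperature.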
RE007 growth inh – less growth of the S. pombe RE007 Vpr strain; S. pombe RE007 Vpr strain, BacTiter-Glo ATP luminescence, 24 h; control for the full effect not named in the record; Potency, µM (titrated, usually from 92.2 µM), without a hit: top-dose activity change, negative = less growth; 0.21% of 360,000 active; AID 651644; active = well fitted falling curve with a large enough effect; inconclusive = small, poorly fitted or top-dose-only effect; inactive = no such curve, though single readings can be large or run the other way;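 also: % is scaled to controls: 0 for no effect and ±100 for the full control effect; nearly all actives have a fitted effect of over 50% in size; the assay follows cell death caused by Vpr and the record does not say whether a fall means rescue or toxicity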
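Fission yeast strain RE007, carrying one chromosomally integrated HIV-1 vpr copy, was seeded at OD 0.01 in PMG+AL medium with 23 nL pinned compound. After 24 h at 30 °C and 99% humidity, viability was read by BacTiter-Glo luminescence.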
Lassa entry inh – inhibitors of Lassa virus binding or cell entry | Lassa virus pseudotype entry inhibition, cell reporter; control for the full effect not named in the record | Potency, µM (series often up to 37.9 µM), inactives show at the highest dose activity change, negative = inhibition, most hits filed as inhibitors | 1.2% of 300,000 active; active means well fitted inhibition curve with a large enough effect; inconclusive means small, poorly fitted or top-dose-only effect, or effect the other way; inactive means flat fitted curve, though single readings scatter; tested in HEK293 cells; also: % is scaled to controls: 0 for no effect and ±100 for the full control effect; nearly all actives have a fitted effect of over 50% in size; luciferase read-out
SARS PLpro yeast – inhibitors of SARS-CoV papain-like protease in yeast; S. cerevisiae expressing SARS-CoV PLpro, growth rescue; control for the full effect not named in the record; Potency, µM (highest dose often 32.9 µM), for the others: at the top dose activity, positive = growth rescue; 0.19% of 330,000 active; active means well fitted rising curve with a large enough effect; inconclusive means small, poorly fitted or top-dose-only effect; inactive means no such curve, though single readings can be large or run the other way; also: 0% is about no effect; nearly all actives have a fitted effect of over 55% in size; growth read by luminescence after 48 h
An asterisk follows results filed as active; ? = inconclusive; . = not tested or not shown; & = joins results of further samples; [ ] = dose if it differs, or a comment. Unless noted, calls follow the shape of the dose curve; as a rule, active = well fitted curve in the direction sought with a large enough effect; inconclusive = small, poorly fitted or top-dose-only effect, or another doubt; inactive = no such curve, though single readings can be large; an effect the other way counts as inactive or inconclusive. Potency is read from the fitted curve at half-maximal effect.

SMILES	Cruzain noTriton	StopGo reporter	NS1 inh	Marburg entry inh	Cruzain inh Det	RE007 growth inh	Lassa entry inh	SARS PLpro yeast
Cc1ccc(C(=O)N/N=C2/NC(=O)CC(C(=O)Nc3ccccc3)S2)cc1 (stereo not given)	-7%	3%	2%	?	-2.6%	-6%	1%	-18%
COc1cc(-c2nnn(CC#N)n2)ccc1OCc1ccccc1	-12%	.	-76%	?	-4.4%	-9%	10%	-5%
Cc1ccc2c(c1)CC1(CN2C)C(=O)NC(=O)N(c2cccc(C)c2C)C1=O (stereo not given)	12%	2%	18%	6%[46.1 µM]	2.2%	6%	-16%	-1%
O=c1ccc(Cl)n[nH]1	.	54%[activator]	7.9µM*	-10%[46.1 µM]	.	1%	8%[46.1 µM]	-2%
CC(C)c1ccc(N(CC(=O)Nc2ccc(S(=O)(=O)N3CCOCC3)cc2)S(C)(=O)=O)cc1	?	-8%	?	-13%	-1.1%	10%	-27%	3%
COc1ccc(-c2oc3ncnc(NCCCN(C)C)c3c2-c2ccc(OC)cc2)cc1	.	?	10%	.	.	16%	.	-2%
Cc1ccc(NC(=O)C2(NC(=O)c3cccc(N4C(=O)CSC4c4ccccc4)c3)CCCCC2)cc1 (stereo not given)	-3%	2%	7%	?	-3.4%	-14%	-25%	0%
CC(=O)Nc1ccc(NC(=O)C2CCCCC2C(=O)O)cc1 (stereo not given)	0%	-23%	3%	2%	2.9%	-8%	13%	-5%
C=CCNC(=S)N1CCC(C(=O)c2ccc(F)cc2)CC1	.	-22%	-13%	.	.	6%	3%	-1%
Cc1ccc2nc(NS(=O)(=O)c3cn(C)nc3C)sc2c1	.	22%	10%	-4%[46.1 µM]	.	-3%	-4%[46.1 µM]	-2%
COc1ccccc1C(=O)NCC(=O)N/N=C/c1ccncc1	.	0%	4%	-6%[46.1 µM]	.	15%	-13%	0%
Cc1cccc(OCC(=O)Nc2cc(NC(=O)COc3cccc(C)c3)cc(C(=O)O)c2)c1	.	0%	11%	1%	.	4%	0%	7%
C=CCCCCCCCC(=O)OC	.	-14%	4%	.	.	14%	.	0%
CCO/N=C/C(=O)Nc1ccc(F)cc1F	.	2%	-3%	.	.	-9%	.	3%
COc1ccc(/C=C/C(=O)OCC(=O)Nc2cc(S(=O)(=O)N(C)C)ccc2Cl)cc1	.	20%	-10%	21%[46.1 µM]	.	-6%	-8%[46.1 µM]	2%
CCN(CC)S(=O)(=O)c1cc(C(=O)N2CCc3ccccc32)ccc1Cl	0%	?	-10%	?	-4.2%	27%	-26%	0%
Cn1ccnc1SCC(=O)Nc1ccc([N+](=O)[O-])cn1	.	2%	13%	-4%[46.1 µM]	.	-23%	9%[46.1 µM]	-6%
COc1ccc(/C=C/C(=O)OCC(=O)Nc2cc(C(F)(F)F)ccc2Cl)cc1	25µM*	4%	22%	6%	-9.3%	6%	-14%	2%
NC(=O)[C@@H]1CCCCNc2c(F)cc([N+](=O)[O-])cc2C(=O)N[C@@H](CC(=O)O)C(=O)N[C@@H](CCC(=O)O)C(=O)N1	-3%	-18%	-1%	7%	-5.7%	3%	4%	-6%
COc1ccccc1NC(=S)N(Cc1ccccc1)Cc1cccs1	.	17%	.	1.4µM*	.	-3%	-2%	-1%
O=C(Nc1cccc(-c2csc(Nc3ccc(Cl)cc3)n2)c1)c1cccc(C(F)(F)F)c1	.	?	-39%	.	.	9%	.	-10%
COc1cccc(C2Nc3cccc4cccc(c34)N2)c1	.	3%	-4%	2%[46.1 µM]	.	1%	2%[46.1 µM]	2%
Cc1ccc(CNC(=O)CN(C)S(=O)(=O)c2ccc(Br)s2)cc1	1%	-1%	.	-1%[46.1 µM]	-3.6%	.	10%[46.1 µM]	.
CCn1c(CSc2nnc(C)n2-c2ccccc2)nc2cc(S(=O)(=O)N(C)C)ccc21	5%	27%	-4%	2%&2%	6.0%	-10%	-4%	-1%
Fc1ccccc1OCCCCCCN1CCCC1	-7%	-2%	0%	-16%	1.4%	-12%	-1%	-2%
COc1ccc(CNC(=O)c2ccc3c(c2)nc2n3CCCCC2)cc1	-15%	34%[activator]	.	.	1.0%	.	?	.
C/C(CCc1ccc2c(c1)OCO2)=N\NC(=O)c1ccccc1Cl	9%	13%	18%	0%	1.6%	-6%	4%	2%
Cc1ccc(C)c(NC(=O)Cn2c(SCC(=O)NCc3ccccc3)nc3ccccc32)c1	-8%	-8%	.	.	1.5%	.	-18%[46.1 µM]	.
Cc1sc2nc(C3CC3)nc(SCC(=O)NCc3ccco3)c2c1C	-19%	.	-7%	2%	-9.3%	3%	-21%	5%
O=C1CC(=O)N(Cc2ccccc2)C(=O)N1Cc1ccccc1	.	-12%	.	?	.	16%	-1%[46.1 µM]	.
CCS(=O)(=O)NC(C)C(c1cccs1)N1CCN(C)CC1 (stereo not given)	-3%	10%	4%	13%	4.0%	-1%	-9%	0%
Cc1cc(C)cc(NC(=O)Nc2cnccn2)c1	.	5%	-17%	.	.	-8%	.	0%
Cc1[nH]n(C(N)=S)c(=O)c1C(c1ccccc1)C(C#N)C#N (stereo not given)	20%	?	-41%	-21%	1.0%	-6%	-19%	5%
S=c1[nH]nc(-c2ccccn2)n1/N=C/c1cccc2ccccc12	-11%	-10%	22%	2%	-4.8%	9%	4%	-12%
COc1ccc(NC(=O)c2cc([N+](=O)[O-])ccc2NC(=O)CNC2CCCCC2C)c(OC)c1 (stereo not given)	.	7%	4%	12%[46.1 µM]	.	-6%	-25%	1%
CCc1ccc(N2CC(C(=O)N/N=C/c3cccc([N+](=O)[O-])c3)CC2=O)cc1 (stereo not given)	2%	.	7%	?	-5.1%	-7%	0%	?
COC(=O)c1sc2ncccc2c1OCc1ccc(Cl)cc1	-2%	13%	7%	8.2µM*	-7.9%	-14%	-9%	-4%
CCOC(=O)C1CCCN(C(=O)c2cnn3c(C(F)(F)F)cc(-c4ccccc4)nc23)C1 (stereo not given)	-5%	-11%	-33%	-22%	-3.4%	11%	?	16%
O=C(CCSc1ccc(Cl)cc1)c1ccco1	.	-12%	6%	.	.	-14%	.	-1%
O=S(=O)(c1cnc[nH]1)N1CCCCCC1	5%	-19%	0%	5%[46.1 µM]	-3.8%	-9%	-10%	1%
C=CCn1c(SCc2ccc(C#N)cc2)nnc1-c1ccc(C)cc1	1%	1%	-69%	?	-2.3%	2%	-22%	1%
COc1ccccc1C(=O)NCCC(=O)N(C)CC(=O)Nc1ccc(Cl)cc1	.	-24%	.	19%	.	-1%	-3%	0%
COC(=O)c1ccc(-c2nc3ccc(C)cc3o2)cc1	13%	30%	-9%	-22%	-2.4%	12%	?	-5%
C=CCNC(=S)NNC(=O)CCC(O)CCCCC (stereo not given)	0%	-16%	-7%	-4%	1.9%	-6%	-4%	-3%
Cc1nnsc1-c1onc(C)c1C(=O)Nc1cc(Cl)cc(Cl)c1	.	?	2%	.	.	2%	.	-1%
O=S(=O)(NCC1CCCO1)c1ccc(Cl)c(C(F)(F)F)c1 (stereo not given)	-2%	37%[activator]	-1%	-7%	0.0%	-1%	1%	3%
Cc1[nH]c(=S)c(C#N)c(C)c1C(=O)Nc1ccccc1	-6%	-17%	8%	?	2.1%	15%	2%	-1%
C=CCn1c(N)c(C(=O)NC2CCCCC2)sc1=S	-13%	0%	3%	-6%	-9.7%	-5%	?	0%
COc1ccccc1/C=C/C(=O)OCC(=O)c1c(N)n(C)c(=O)n(C)c1=O	10%	-2%	10%	0.89µM*	-6.1%	.	18%	19%
CC(C)NC(=O)CCCC(=O)NC(C)C	3%	-14%	21%	6%	-2.2%	.	6%	22%
New compounds follow
SMILES	Cruzain noTriton	StopGo reporter	NS1 inh	Marburg entry inh	Cruzain inh Det	RE007 growth inh	Lassa entry inh	SARS PLpro yeast
Cn1c(C(=O)N2CCN(c3ccccc3)CC2)cc2cc(Cl)ccc21	.	-12%	-19%	.	.	-17%	.	0%
O=C(NCC1CCCCC1)c1ccco1	-2%	7%	-3%	26%	0.6%	-5%	-20%	-4%
COc1ccc(-c2cc(-c3ccccc3)nc(N)n2)c(O)c1	.	12%	.	?	.	4%	?	.
COc1ccc(-n2c(=S)[nH]c3cc(C(=O)NC4CCCCC4)ccc3c2=O)c(OC)c1	.	-9%	.	?	.	-20%	-17%	1%
COc1ccc(CNC(=O)c2cc(=O)c3cc(C)ccc3o2)cc1	-11%	-14%&-9%	-4%	5%&5%[46.1 µM]	-0.7%	.	10%[46.1 µM]	1%
CSc1ncccc1C(=O)NCCc1ccccc1	.	-10%	.	-2%[46.1 µM]	.	3%	-7%[46.1 µM]	0%
CCC(C)NC(=O)c1ccc2c(c1)sc1nc(-c3ccc(OC)cc3)cn12 (stereo not given)	-6%	1%	.	.	-0.2%	.	-8%[46.1 µM]	.
CN(C)CCCN(C(=O)CCSc1ccccc1)c1nc2cc3c(cc2s1)OCO3	.	-19%	.	?	.	5%	?	-6%
C=CCNC(=O)CCCOc1ccc(C)cc1	1%	8%	-10%	?	-4.1%	-8%	17%	-3%
CN(C)c1ccc(Nc2nc(N)c3ccccc3n2)cc1	.	7.1µM*	-2%	0.63µM*	.	25µM*	0.89µM*	-13%
Cc1ccc(CNC(=O)CNC(=O)c2ccc(Br)o2)cc1	.	-8%	4%	1%[46.1 µM]	.	-11%	6%[46.1 µM]	-6%
Cc1c(Cl)cccc1-n1c(SCC(=O)N(C)Cc2ccccc2)nnc1-c1ccncc1	?	-27%	-2%	?	0.4%	-18%[3.69 µM]	19%	-6%
COCCN(CCOC)c1nc(-c2ccccc2)nc2ccccc12	.	?	-41%	.	.	-16%	.	-3%
O=C(O)CSc1c[nH]c2ccccc12	-3%	-9%	-3%	-28%	0.9%	7%	-2%	5%
COc1ccc(S(=O)(=O)N2CCOCC2)cc1NC(=O)CCc1c[nH]c2ccccc12	.	10%	.	-19%[46.1 µM]	.	7%	?	4%

Compound activity as filed in PubChem BioAssay.
